MgrA-DNA mod – S. aureus MgrA-DNA binding modulation; 0.13% of 84,000 active; fluorescence polarization; inhibition, %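 (about 10 µg/mL by stock and volumes)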; AID 602314;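 active means above 50% in either of two replicates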;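 further: 0% = protein plus DNA without compound and 100% = DNA alone without protein; higher means less MgrA bound to DNA so lower polarization; one replicate is shown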
S aureus helic – S. aureus DNA helicase inhibition; purified S. aureus helicase, fluorescence unwinding assay; about half of the hits fall short of the stated cut; inhibition, %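 (tested at about 80 µM)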; 0.05% of 120,000 active; AID 485395;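 active means both duplicates at 50% or more, or one of them with a favoured structure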;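 further: 0% = mean of negative control wells and 100% = mean of positive control wells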
The depositor's hits bear a star; . = not tested or not shown. These rows are one share of the data (hit frequency here may not be typical).

SMILES	MgrA-DNA mod	S aureus helic
O=C(/C=C/c1c(Cl)nc2sccn12)OCc1cc(=O)n2c3c(sc2n1)CCCC3	.	-6
c1csc(-c2nc(NCCCN3CCOCC3)c3ccccc3n2)c1	.	4
O=C(O)CNC(=O)COc1ccc(Oc2ccccc2)cc1	.	-8
CCN1CCN(CCC(=O)Nc2ccc(C)cc2)CC1	2.9	2
COc1ccc(N=C2SCC(c3ccccc3)=NN2C)cc1	1.8	.
O=C(O)CSc1n[nH]c(=S)s1	17	.
O=S(=O)(c1cccc2nsnc12)N(CCOc1cccc2ccccc12)C1CCCCC1	-0.8	.
CC1=C(C#N)C2C(/C1=N/O)C2(C)C (stereo not given)	1.4	6
O=C(OCCN1CCCCC1)C1COc2ccccc2O1 (stereo not given)	.	6
O=C(Nc1ccc2c(c1)OCO2)[C@H](Cc1ccccc1)N1Cc2ccccc2C1=O	.	-12
O=C(CSc1nnc(SCc2ccc(Cl)cc2)s1)N1CCc2ccccc2C1	1.5	6
N#C/C(N=Cc1ccccc1)=C(\C#N)NCc1c(F)cccc1Cl	0.1	.
Cc1cc(C(=O)OCc2cc(Cl)cc3c2OCOC3)c(C)o1	.	8
CCN1CCN(C(=O)c2ccccc2NS(C)(=O)=O)CC1	0.9	5
COc1ccc2cc3cc(C(=O)NCc4ccccn4)oc3nc2c1	.	-26
CCOC(=O)c1c(NC(=O)C(C)(C)C)sc2c1CCCC2	2.3	0
Cc1cc(-c2nn(C)c(=O)c3ccccc23)cc(C)c1OC(=O)Nc1ccccc1	0.8	.
O=c1c(-c2ccc(Cl)cc2)c(C(F)(F)F)oc2c(CN3CCOCC3)c(O)ccc12	-3.2	.
O=C(Cn1c(SCc2cccc(F)c2)nc2ccncc21)NCC1CCCO1 (stereo not given)	.	1
Cc1ccsc1C(=O)OCC(=O)Nc1ccccc1	-0.5	-9
Cc1cccc(NC(=O)c2ccco2)n1	0.9	.
O=C(OCc1ccco1)c1ccc(-c2ccc(Cl)cc2)s1	6.8	.
COc1ccc(CCNC(=O)Cn2cnc3c(cnn3-c3ccccc3)c2=O)cc1OC	.	6
Cc1cccc(-c2noc(CNS(=O)(=O)c3ccccc3)n2)c1	.	-9
Clc1ccc2[nH]c3nc4ccccc4nc3c2c1	2.2	0

Other entries.
SMILES	MgrA-DNA mod	S aureus helic
NC(=O)c1nnc(Cc2ccc(Cl)cc2)o1	.	2
Cc1cc(NCCN(C)C)n2nc(C)c(-c3ccccc3)c2n1	-0.8	18
CC1CCN(C(=O)c2ccc3c(Cl)c4c(nc3c2)CCCC4)CC1	0.3	14
CCSc1nnc(C2CCCN(CC(=O)NC3CCCCC3C)C2)n1CC (stereo not given)	-1.9	2
Cc1cc(C(=O)COc2ccc(F)cc2)c(C)n1-c1ccccc1	0.0	-11
c1cc2c3c(cccc3c1)C(N1CCCCCC1)=N2	.	-18
Cc1nc(N2CCOCC2)c2c(C)c(C(=O)Nc3cccc(Cl)c3C)sc2n1	.	0
Cc1ccc(Cl)cc1N1CCN(CC(=O)Nc2ccc3[nH]c(=O)[nH]c3c2)CC1	.	24
Cc1nn(-c2ccccc2)nc1CNC(=O)c1ccc(N(C)C)cc1	-1.5	.
CCOC(=O)c1c(-c2cccs2)csc1NC(=O)COC(=O)c1cc2c(s1)CCC2	.	1
CN1CCN(C(=O)c2nn3c(C(F)(F)F)cc(-c4ccc(Cl)cc4)nc3c2Cl)CC1	-3.1	.
CC(C)(C)NC(=O)c1ccccc1	5.1	5
Cc1nnc(NC(=O)c2cccc(Cl)c2)s1	-2.0	-14
CSC(=S)OCC12CC3CC(CC(C3)C1)C2	-1.2	.
Cc1ccc(-n2c(SC(C)C(=O)NC(N)=O)nc3ccccc32)cc1 (stereo not given)	.	11
FC(F)(F)c1ccc(NCn2nnc3ccccc32)cc1	.	-16
Cc1ccn2cc(C(=O)N3CCCN(S(=O)(=O)c4ccc(F)cc4)CC3)nc2c1	.	4
O=C(CSC1=NCCS1)Nc1ccccc1C(F)(F)F	-0.6	9
CC(=N\O)/C(=N\O)c1cccs1	3.5	4
O=C(CSc1nccc(C(F)(F)F)n1)Nc1ccc(Br)cc1	-1.2	.
CC1(C)CC2CC(C)(CN2C(=O)CSc2nnnn2-c2ccccc2)C1 (stereo not given)	.	8
O=C1N(CCOc2ccccc2)c2ccccc2C12OCCCO2	-2.6	-1
CCOc1ccc(NC(=O)c2cc3ccccc3o2)cc1OCC	6.7	12
O=C(COc1cccc2c1CCN(Cc1ccccc1)C2=O)Nc1ccc2c(c1)OCCO2	.	0
COc1cc(C2C3=C(CC(C)(C)CC3=O)OC3=C2C(=O)CC(C)(C)C3)ccc1OCC(=O)Nc1ccc2c(c1)OCO2	0.0	.

3 compounds picked at random from the list so far, as already listed:
SMILES	MgrA-DNA mod	S aureus helic
CC1CCN(C(=O)c2ccc3c(Cl)c4c(nc3c2)CCCC4)CC1	0.3	14
CCOc1ccc(NC(=O)c2cc3ccccc3o2)cc1OCC	6.7	12
CC(C)(C)NC(=O)c1ccccc1	5.1	5

Returning to the listing, starting five compounds before the break.
SMILES	MgrA-DNA mod	S aureus helic
CC1(C)CC2CC(C)(CN2C(=O)CSc2nnnn2-c2ccccc2)C1 (stereo not given)	.	8
O=C1N(CCOc2ccccc2)c2ccccc2C12OCCCO2	-2.6	-1
CCOc1ccc(NC(=O)c2cc3ccccc3o2)cc1OCC	6.7	12
O=C(COc1cccc2c1CCN(Cc1ccccc1)C2=O)Nc1ccc2c(c1)OCCO2	.	0
COc1cc(C2C3=C(CC(C)(C)CC3=O)OC3=C2C(=O)CC(C)(C)C3)ccc1OCC(=O)Nc1ccc2c(c1)OCO2	0.0	.
Cn1c(Nc2ccccc2)nc2ccccc21	-3.2	5
c1coc(CNCC2OCCc3ccccc32)c1 (stereo not given)	-2.6	11
O=c1c2sc(=S)n(Cc3ccco3)c2nc(SCc2ccccc2)n1-c1ccccc1	1.8	7
CCOC(=O)c1c(C)[nH]c(C)c1C(=O)CSc1cccc[n+]1[O-]	.	16
Cc1ccc2oc(=O)c3cnn(CC(=O)N(CCC(C)C)Cc4ccco4)c3c2c1	.	-11
CC(=O)Nc1c(N)c2ccccc2oc1=O	0.8	-15
Cc1cccc(NC(=O)Cn2c(CNC(=O)c3ccccc3)nc3ccccc32)c1	-0.5	9
CCn1c(O)c(N=NC(=O)c2ccc(C)nc2)c2ccccc21	.	1
O=C(Cc1csc(N2CCOCC2)n1)N/N=C/c1cccc(O)c1	.	-4
Cc1c(CCC(=O)N2CCOCC2)c(=O)oc2c(C)c(O)ccc12	.	-13
CC1(C)Cc2ccccc2C(CSc2ccccc2C(=O)O)=N1	.	9
CCC(=O)c1cc2cc(Cl)cc(Cl)c2oc1=O	.	16
CC(=O)Nc1cccc(OCCCN2C(=O)c3ccccc3C2=O)c1	-2.0	.
CC(C(=O)NCC1CCCCC1)N1CCN(S(=O)(=O)/C=C/c2ccccc2)CC1 (stereo not given)	.	14
O=C(Nc1c[nH]c2ccccc12)N1CCOCC1	.	2
CCOC(=O)c1oc2ccccc2c1CSc1nc2ccccc2c(=O)n1CC1CCCO1 (stereo not given)	.	15
CCOC(=O)C1=C(C(C)C)NC(=O)NC1c1ccc(F)cc1 (stereo not given)	0.9	2
Cc1ccc(C2=N/C(=C\c3cccs3)C(=O)O2)cc1	.	-23
S=C(NCc1ccccc1)NC1CC1	-1.2	26
O=C(N/N=C/C=C/c1ccccc1)c1cc(C2CC2)[nH]n1	.	21
CN(CCO)c1ccc(C(=O)c2ccc(N(C)CCO)cc2)cc1	0.0	.
CC(C)N1C(=O)CC(Nc2cccc3cccc(N)c23)C1=O (stereo not given)	.	4
O=C(CCc1cn(Cc2ccc(F)cc2)c2ccccc12)NC1CCCc2ccccc21 (stereo not given)	-0.2	-3
COc1cccc(OC(=O)c2ccc(Cl)cc2Cl)c1	-1.5	1
O=C(CSc1nc2ccccc2s1)OCc1nnc(-c2ccccc2)o1	.	-15

(listing goes on)
SMILES	MgrA-DNA mod	S aureus helic
CC1(C)C2CC=C(/C=N/NC(=O)C3CC3)C1C2 (stereo not given)	.	-7
Cc1ccc(NC(=S)N2CCN(CCO)CC2)c(C)c1	0.0	10
N#Cc1ccc[nH]c1=S	.	-19
Cc1cc(C)cc(C(=O)N(C)CC(=O)Nc2ccc(F)cc2)c1	.	-7
Cc1ccc(Oc2ncccc2NC(=O)CN2CCC(NC(=O)c3ccccc3)CC2)c2c1CCC2	.	-9
CCOC(=O)C1=C(c2ccccc2)NC(=S)NC1c1cccc(OC)c1O (stereo not given)	0.8	11
CCCC(=O)NCc1ccccc1Cl	-3.6	10
O=c1c2ccccc2n2c(-c3ccsc3)nnc2n1Cc1ccccc1	0.6	7
COc1ccc(C(C(=O)Nc2ccc(C(C)C)cc2)N(Cc2ccco2)C(=O)CC2NC(=O)NC2=O)cc1 (stereo not given)	.	-22
Cc1c(Cc2ccccc2)c(=O)oc2cc(O)ccc12	-0.8	.
Cc1ncc(CC(=O)O)s1	.	1
CCn1cc(C(=O)NCC(C)C)c(=O)c2cc(F)c(N3CCN(C(=O)c4ccco4)CC3)cc21	1.4	3
N#Cc1c(Cl)cccc1Oc1ccc(-c2ccnc(N)n2)cc1	0.1	.
NC(=O)/C=C1\NC(=O)CS1	0.5	-21
CCCCSc1ncnc2c1cnn2-c1ccc(Cl)cc1	.	3
COc1ccc(/C=C2\CCC/C(=C\C=N\N(C)C)C2=O)cc1	.	-100
CCCN1C(=O)CC(=O)N=C1SCC(=O)Nc1ccccc1F	.	-13
O=C(OCCN1CCCCC1)c1cc2ccccc2o1	-0.5	9
COc1cccc(C(=O)N2CCN(C3CCC(c4ccccc4)CC3)CC2)c1OC (stereo not given)	-5.6	5
COc1cc(Cl)c(C)cc1-n1ccnc(NCCCOC(C)C)c1=O	.	9
Cc1ccc2c(c1)c1c3n2CCNC3CCC1 (stereo not given)	4.8	.
CCn1c2ccccc2c2n[nH]c(=S)nc21	-1.2	10
Cc1csc(SCC(=O)Nc2ccc(N3CCCCC3)cc2)n1	.	1
CCN(CC1COc2ccccc2O1)Cn1c(=O)oc2ccccc21 (stereo not given)	.	-5
Cc1nc2ccccc2c(=O)n1-c1ccc(NS(C)(=O)=O)cc1	.	1

Entries listed so far containing a thiophene ring, fused or not, in the order listed:
SMILES	MgrA-DNA mod	S aureus helic
c1csc(-c2nc(NCCCN3CCOCC3)c3ccccc3n2)c1	.	4
CCOC(=O)c1c(NC(=O)C(C)(C)C)sc2c1CCCC2	2.3	0
Cc1ccsc1C(=O)OCC(=O)Nc1ccccc1	-0.5	-9
O=C(OCc1ccco1)c1ccc(-c2ccc(Cl)cc2)s1	6.8	.
Cc1nc(N2CCOCC2)c2c(C)c(C(=O)Nc3cccc(Cl)c3C)sc2n1	.	0
CCOC(=O)c1c(-c2cccs2)csc1NC(=O)COC(=O)c1cc2c(s1)CCC2	.	1
CC(=N\O)/C(=N\O)c1cccs1	3.5	4
Cc1ccc(C2=N/C(=C\c3cccs3)C(=O)O2)cc1	.	-23
O=c1c2ccccc2n2c(-c3ccsc3)nnc2n1Cc1ccccc1	0.6	7

Going on with the list:
SMILES	MgrA-DNA mod	S aureus helic
CS(=O)(=O)N1Cc2ccccc2CC1C(=O)O (stereo not given)	.	10
Cn1c(=O)c2c(nc(CN3CCN(c4ccccc4)CC3)n2Cc2c(F)cccc2Cl)n(C)c1=O	-0.6	-6
COc1ccc(-c2c/c(=N\O)c3cc(F)ccc3o2)cc1	-0.8	-4
CSC(N)=Nc1ccccc1	-0.4	.
COc1cc2c(cc1OC)CN(C(=O)Cc1cccs1)CC2	.	15
COc1cccc(C(=O)N(c2ccccn2)c2ccccn2)c1	-1.6	-28
FC(F)(F)c1ccc2nccnc2c1	-0.6	.
O=S(=O)(Oc1cc(Cl)cc(Cl)c1)c1cccc2nsnc12	-2.1	.
O=C(Nc1ccc(Cl)cc1)NC1Cc2ccccc2C1	-0.9	.
CC(C(=O)NC1CCCC1)n1c2ccccc2c2cn[nH]c(=O)c21 (stereo not given)	.	-21
CCn1c(C(=O)N2CCCC2)cc2sc(Cl)cc21	0.9	-12
Cc1cc(F)ccc1NCC(=O)Nc1ccc(C#N)cc1	.	-11
Cc1ccc(SCC(=O)NC2(C#N)CCCCC2)c(C)c1	.	-19
O=C(OCC(=O)N1CCC(Cc2ccccc2)CC1)C1CCC1	0.7	-9
O=S(=O)(c1ccc(-c2cc(C(F)(F)F)no2)s1)N1CCCCC1	.	0
CC12CC3CC(C)(C1)CC(C(=O)N1CCCC1)(C3)C2	0.1	20
c1ccc(-c2nc(CSc3nncn3-c3ccccc3)cs2)cc1	.	-8
O=C(O)c1cc(S(=O)(=O)NCC2COc3ccccc3O2)ccc1Cl (stereo not given)	.	18
CCn1nc(CC(=O)O)c2ccccc2c1=O	.	-19
Cc1cc(Oc2ccc(C(F)(F)F)cc2[N+](=O)[O-])n(-c2ccccc2)n1	-1.2	.
CCOC(=O)C1=C(C)N=c2s/c(=C/c3ccc(OC(C)=O)c(OC)c3)c(=O)n2C1c1cccs1 (stereo not given)	-1.4	.
COCCN1Cc2cccc(C(=O)Nc3ccc(S(=O)(=O)N4CCOCC4)cc3)c2C1=O	.	10
COc1cc(NC(=O)C(NS(=O)(=O)c2ccc3c(c2)oc(=O)n3C)C(C)C)cc(OC)c1 (stereo not given)	.	-23
S=C(NCc1ccccc1Cl)NC12CC3CC(CC(C3)C1)C2	-1.6	.
Cc1ccc(C(=O)CSc2nc(C)cc(C)c2C(N)=O)cc1	0.9	7

Next compounds follow.
SMILES	MgrA-DNA mod	S aureus helic
CCN(CC)c1nc(Nc2ccc([N+](=O)[O-])cc2)nc(N(CC)CC)n1	3.0	.
CC1CC(C)CN(C(=O)C(C)N(C)CC(=O)Nc2ccccc2Cl)C1 (stereo not given)	.	-14
O=C(O)c1cc(=O)[nH]c2ccc(Br)cc12	-1.0	.
CC(C)CN(CC(C)C)Cn1[nH]c(-c2cccs2)nc1=S	.	-3
CC(C)(C)n1ncc2c(=O)n(CC(=O)c3ccc(Cl)cc3)cnc21	.	3
CCN1CCN(c2ccc(NC(=O)c3cccc4c3C(=O)N(Cc3cccnc3)C4)cc2)CC1	.	30
O=C(CSc1ncc(-c2ccccc2)[nH]1)Nc1cccc(O)c1	-1.2	-1

Screening results deposited in PubChem BioAssay by ICCB-Longwood Screening Facility, Harvard Medical School.
